# eIF4H inh = inhibitors of RNA binding by human eIF4H; Q15056; eIF4H fluorescence polarization binding assay; inhibition, % at 35 µM; actives 0.94% (n = 290,000);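 active means 50% or more with normal probe brightness, or confirmed in later tests; about a fifth of its hits are not listed in these tables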;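 further: calls also rest on retests at 20 µM and on dose response follow-up; 0% = protein and probe with vehicle and 100% = probe without protein; strong numbers were not always called active; many hits fall short of the cut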
# HIV Env fusion = inhibitors of HIV Env-mediated cell fusion; AID 651610; actives 1.1% (n = 360,000); inhibition, % at 12.3 µM; HeLa-JRFL Env/CEM21 cell fusion, luciferase;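 active means mean replicate inhibition score of at least 50 and every replicate individually at or above 50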;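 further: 0% = plate neutral controls and 100% = maraviroc near 300 nM; one replicate is shown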
# CSC inhib = blocks cancer stem cells; cancer stem cell-like cells viability, luminescence; inhibition, % at 7.5 µM; actives 1.1% (n = 300,000);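 active means mean at 75% or more and at least half the replicates too; tested in HMLE shEcad cells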;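 further: 0% = median of negative and 100% = median of positive control wells; the first replicate is given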
# Rce1 inh = inhibitors of yeast Ras-converting enzyme; yeast membranes, quenched prenylated peptide cleavage fluorescence; calls only; actives 0.27% (n = 290,000); Q03530;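 active means fall in fluorescence gain of 50% or more versus controls, with final raw signal at or below 3038400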;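 further: plate controls were neutral control wells for no effect and wells lacking membranes for full effect; tested at 10 µM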
# PABP FP inh = PABP-poly(A) binding inhibition; P11940; PABP-poly(A) RNA binding, fluorescence polarization; inhibition, % at 35 µM; actives 1% (n = 290,000);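 active means 50% or more with normal probe brightness, or confirmed in later tests; about a fifth of its hits are not listed in these tables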;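 further: calls also rest on retests at 20 µM and on dose response follow-up; controls were probe without protein and protein plus probe with vehicle; some compounds called inactive have numbers as strong as hits; many hits fall short of the cut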
# Target sequence (P11940 whole entry, looked up): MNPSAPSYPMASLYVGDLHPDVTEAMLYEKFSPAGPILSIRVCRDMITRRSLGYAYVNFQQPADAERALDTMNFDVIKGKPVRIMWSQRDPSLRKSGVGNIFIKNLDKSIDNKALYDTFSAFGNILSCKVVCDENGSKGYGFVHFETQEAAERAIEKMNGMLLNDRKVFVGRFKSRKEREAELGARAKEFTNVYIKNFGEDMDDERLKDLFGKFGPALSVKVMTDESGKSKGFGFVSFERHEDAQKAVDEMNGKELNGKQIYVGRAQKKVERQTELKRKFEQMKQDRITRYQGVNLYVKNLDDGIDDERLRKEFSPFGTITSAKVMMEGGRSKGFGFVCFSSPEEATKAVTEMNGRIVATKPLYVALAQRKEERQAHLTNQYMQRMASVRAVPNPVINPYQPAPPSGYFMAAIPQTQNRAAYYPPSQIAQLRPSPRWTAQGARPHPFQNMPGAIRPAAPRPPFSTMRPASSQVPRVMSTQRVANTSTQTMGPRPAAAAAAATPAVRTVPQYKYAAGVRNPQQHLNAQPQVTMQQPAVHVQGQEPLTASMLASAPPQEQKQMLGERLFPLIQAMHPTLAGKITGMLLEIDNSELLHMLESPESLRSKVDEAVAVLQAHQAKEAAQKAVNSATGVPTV
# Yeast UUG start = alters start codon recognition fidelity in yeast | S. cerevisiae UUG-firefly luciferase reporter, luminescence/redox ratio | activity score, % at 18.7 µM | actives 0.13% (n = 350,000);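 active means replicate mean at a twofold rise or more, about +100% in these data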;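 further: firefly luciferase made from a UUG start codon reports start codon fidelity; reporter light over untreated wells divided by growth signal over untreated wells; some hits fall short of that in this replicate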
# MT1-MMP act inh = blocks activation of human MT1-MMP. AID 651647. P50281. actives 0.061% (n = 360,000). HT1080 RFP-PRO-GFP cells, GFP/RFP ratio fluorescence, overnight; percent of plate control window, DMSO zero. GFP/RFP ratio change, % at 20 µM;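 active means GFP/RFP ratio change of at least 30% with cell ATP level not reduced by more than half and red fluorescence within 50% of control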; further: strong numbers were not always called active
#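 Compound: 20 µM single dose, 1% DMSO / System: HT1080 RFP-PRO-GFP cells / Controls: DMSO and RFP-L50D-GFP cell wells / Read-out basis: GFP/RFP fluorescence ratio / Schedule: overnight compound exposure at 37 °C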
# eIF4H inh retest = second read-out of eIF4H inh, no call of its own (marks repeat the call); inhibition, %; compound at 20 µM; confirmation average;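 mean of two retest wells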
# PABP FP inh retest = also measured in PABP FP inh; calls as there; inhibition, %; compound at 20 µM; confirmation repeats;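 mean of two retest wells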
# MT1-MMP act inh RFP = recorded beside MT1-MMP act inh, whose call it bears; RFP signal change, %; measured here: RFP expression control read;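 0 = vehicle wells; hits needed this value within 50% of zero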
# Starred values were filed as active, the others as inactive; i = inactive; · = not tested or not shown.
SMILES,eIF4H inh,HIV Env fusion,CSC inhib,Rce1 inh,PABP FP inh,Yeast UUG start,MT1-MMP act inh,MT1-MMP act inh RFP,others
CCc1c(O)nc(SC2CC(=O)N(c3ccccc3)C2=O)[nH]c1=O (configuration not stated),-9,·,-18,i,-11,1,-11,-6,
O=C(Nc1cc(S(=O)(=O)Nc2ccc(Cl)cc2)ccc1O)c1ccc(S(=O)(=O)N2CCCCCC2)cc1,-7,-7,18,i,-8,-8,3,-16,
Cc1ccc(F)cc1NC(=O)CCc1c(C)[nH]c(=O)c(C#N)c1C,-4,0,-12,i,7,-3,-4,2,
CCc1ccc(N2CC(C(=O)NCc3ccco3)CC2=O)cc1 (configuration not stated),2,·,-14,i,-1,-3,-4,3,
CCOc1ccc2nc(N/C(N)=N/S(C)(=O)=O)nc(C)c2c1,3,-29,-3,i,-11,-13,3,1,
CCc1ccccc1NC(=O)CCC(=O)Nc1nnc(C(C)C)s1,-10,-11,5,i,9,-17,0,3,
COCCNC(=O)c1cc(-c2ccccc2)nn1CC1CC(c2cccnc2)=NO1 (configuration not stated),·,-10,-5,i,·,-10,-1,0,
CCOC(=O)c1cc(CC)sc1/N=C/C1C(=O)CCCC1=O,16,3,4,i,-1,·,-1,1,
COc1ccc(CC(=O)Nc2c(C(=O)N3CCN(c4ccccc4OC)CC3)oc3ccccc23)cc1OC,-1,3,-5,i,1,-4,0,-6,
CCOc1cc(/C=C/c2nc3ccccc3c(=O)[nH]2)cc(Br)c1OC,-3,·,21,i,23,·,·,·,
Cc1ccc(C)c(N(CC(=O)NC2CCCCC2)C(=O)CNC(=O)c2ccco2)c1,-9,4,-3,i,2,4,-3,0,
Cn1c(=O)[nH]c(=O)c2c1nc(N1CCOCC1)n2CC(=O)c1ccccc1,10,2,-7,i,2,·,-1,6,
OC(CCCC(O)c1ccccc1)c1ccccc1 (configuration not stated),·,5,·,·,·,17,2,4,
COc1ccccc1NS(=O)(=O)c1ccc(C(=O)NCC2(N(C)C)CCCCC2)cc1,·,·,17,i,·,-18,-3,-1,
CCOC(=O)C1=C(Nc2ccc(Cl)cc2)OCC1=O,-5,20,-1,i,9,0,1,2,
CC(C)C(=O)N1CCN(c2ccccc2NC(=O)c2ccc(C#N)cc2F)CC1,-2,7,-7,i,4,-4,-7,-7,
Cn1c(=O)c(=O)n(C)c2cc(S(=O)(=O)Nc3ccc(OC(F)(F)F)cc3)ccc21,6,·,-6,i,-5,4,4,0,
Cc1nn(Cc2ccccc2Cl)c(C)c1C(=O)NCCN1C(=O)S/C(=C\c2ccccc2)C1=O,71,-3,29,i,-6,·,-2,-3,eIF4H inh retest=-17;PABP FP inh retest=10
CC1CCCC(NC(=O)COC(=O)Cc2ccc(Br)cc2)C1C (configuration not stated),-9,0,-2,i,-8,·,4,0,
CC(C)(C)c1ccc(C(=O)Nc2ccc(F)cc2)s1,-4,-224,28,i,-2,·,1,-3,

# 2 compounds drawn at random from the list so far, as already listed:
SMILES,eIF4H inh,HIV Env fusion,CSC inhib,Rce1 inh,PABP FP inh,Yeast UUG start,MT1-MMP act inh,MT1-MMP act inh RFP,others
CC1CCCC(NC(=O)COC(=O)Cc2ccc(Br)cc2)C1C (configuration not stated),-9,0,-2,i,-8,·,4,0,
COc1ccccc1NS(=O)(=O)c1ccc(C(=O)NCC2(N(C)C)CCCCC2)cc1,·,·,17,i,·,-18,-3,-1,

# Next part
SMILES,eIF4H inh,HIV Env fusion,CSC inhib,Rce1 inh,PABP FP inh,Yeast UUG start,MT1-MMP act inh,MT1-MMP act inh RFP,others
Cn1c(=O)[nH]c(=O)c2c1nc(NCc1ccccc1)n2Cc1ccc(F)cc1,-1,-59,7,i,-10,-20,3,1,
Cc1ccc(S(=O)(=O)N/N=C/c2cccc3nccnc23)cc1,-9,17,0,i,1,-4,-8,4,
O=c1cc(-c2ccccc2)nc2cc(-c3ccc(F)cc3)[nH]n12,·,-1,56,i,·,-8,0,-12,
COc1ccc(/C=N/NC(=O)CNC(=O)C2COc3ccccc3O2)cc1OC (configuration not stated),-6,4,3,i,2,·,0,2,
CCN1CCCC1CNC(=O)Cn1nc(C)n2nc(-c3ccccc3)cc2c1=O (configuration not stated),0,0,16,i,-1,-5,-1,1,
Cc1ccc2nc(NC(=O)CSc3nc4ccccc4o3)sc2c1,6,·,2,i,-1,-15,2,-4,
Cc1cc(Cl)ccc1OCC(=O)NCCCn1ccnc1,-2,0,-10,i,0,·,1,1,
O=C(NCc1ccccc1)c1ccc(-c2cn[nH]c2)c2ccoc12,·,10,·,·,·,-17,7,0,
CCN(CC)C(=O)c1nn(-c2ccccc2)c2c1C1CCC2(C)C1(C)C (configuration not stated),-6,19,-7,i,-9,-2,-2,-29,
COc1ccc(C(=O)NC2CCSc3ccccc32)cc1F (configuration not stated),5,4,-21,·,7,-20,2,3,
CCOC(=O)Cc1csc(NS(=O)(=O)c2ccc(F)cc2)n1,34,·,-10,i,31,-11,-3,0,
CC(NC(=O)CCn1c(=S)[nH]c2ccsc2c1=O)c1ccccc1 (configuration not stated),-5,11,-4,·,-7,-18,-2,-1,
Cc1cc(C(=O)CSc2nc(N)cc(N)n2)c(C)n1CC1CCCO1 (configuration not stated),·,21,-7,·,·,-6,3,-5,
CCc1cc2ccccc2nc1SCC(=O)Nc1cc(C)on1,-5,·,-1,i,5,-8,-3,3,
C[C@@]12C(=O)N(c3cccc(Br)c3)C(=O)N1[C@H](c1ccc(Cl)cc1)[C@@H]1C(=O)N(C3CCCCC3)C(=O)[C@@H]12,-7,-9,28,i,15,-11,-11,-16,
Cc1ccccc1C(=O)Nc1cccc(C(=O)N/N=C/c2cc(Cl)cc([N+](=O)[O-])c2O)c1,16,9,49,i,-2,·,-6,-5,
CCN1C2=NCCCN2c2cc(C)c(C)cc21,-6,·,-3,i,-6,·,1,5,
CN(c1nc2ccccc2n2c(-c3ccco3)nnc12)S(=O)(=O)c1ccccc1,-15,-36,-7,i,-5,-13,-11,-3,
Cc1cc(C)c(C#N)c(Oc2ccccc2)n1,-18,·,1,i,-3,-2,-2,1,
Cc1ccccc1NC(=O)c1ccc(N/N=C/c2ccccc2O)c([N+](=O)[O-])c1,-9,·,7,i,5,·,4,-1,
Cc1cc(C)c2sc(N(CCCN(C)C)C(=O)c3ccc(S(=O)(=O)N4CCCc5ccccc54)cc3)nc2c1,·,-11,101*,i,·,-4,3,-3,
C=CCN(CC=C)C(=O)C1CCC(C(=O)N(CC=C)CC=C)CC1 (configuration not stated),-4,·,-2,i,33,3,2,1,
Cc1cc(C)nc(/N=C(\N)N2CCCCC2)n1,28,-1,0,i,6,·,1,1,
O=C1CCCc2nc(N3CCN(c4ccccc4)CC3)ncc21,4,-71,-5,i,-8,-15,-1,-10,
CCCNC(=O)c1cc2nc(-c3ccccc3)cc(C(F)(F)F)n2n1,-1,-70,2,i,0,1,6,2,
CCN1CCCC1CNC(=O)C(NC(=O)C1CCC(C)CC1)C(C)C (configuration not stated),16,-13,-13,i,4,-15,3,4,
CC(SCC(=O)NC(C)C1CC2CCC1C2)C(=O)O (configuration not stated),6,8,3,i,11,-20,3,8,
Cc1ccc(C(C)(C)NC(=O)C2CCC(=O)N(CCCN3CCOCC3)C2)cc1 (configuration not stated),-4,0,0,i,3,-9,0,5,
Cn1c(N)c(C(=O)COC(=O)C2Cc3ccccc3CN2S(C)(=O)=O)c(=O)n(C)c1=O (configuration not stated),·,33,·,·,·,-11,2,-5,
C[C@]12CCC3C(CC[C@H]4CC(O)CC[C@]34C)C1CC/C2=N/O (some centres not stated),2,-21,-1,i,4,-2,7,5,
Cc1nc(SCC(=O)NCC2CCCO2)c2c3c(sc2n1)CCC3 (configuration not stated),-11,-7,-12,i,-2,8,0,-2,
CC(C)CN=CC1=C(O)c2ccccc2C1=O,-6,-44,-9,i,2,-25,0,2,
C/C(=N/NC(=O)c1ccccc1)c1ccc(NC(=O)C(F)(F)F)cc1,-6,1,-6,i,0,·,-3,3,
Cc1cccc(NC(=O)CSCC(=O)N2CCN(Cc3ccc4c(c3)OCO4)CC2)c1,·,11,-1,i,·,-7,5,-1,
CC1(N(O)C=C2C=CC(=O)C=C2)CCCCC1=O (configuration not stated),-5,2,2,i,1,·,4,5,
CCOC(=O)N1CCN(Cc2c(F)cccc2F)CC1,5,·,6,i,8,5,2,6,
CCCCCCCCc1nnc(NC(=O)c2ccco2)s1,12,·,-1,i,4,-11,5,6,
COc1ccc(C(=O)NC(C)c2ccc(-n3ccnc3)cc2)c(OC)c1OC (configuration not stated),24,-4,3,i,-2,-24,1,-2,
Cc1ccc(C(C)C)c(OCc2nnc3n2CCCCC3)c1,-18,-15,-13,i,6,-17,-2,-3,
Cc1cccc(-c2nnc(SC(C)C(=O)N3CCOCC3)o2)c1 (configuration not stated),-3,9,13,i,8,-18,0,1,
COc1ccccc1Nc1nc(N)nc(CSC(=S)N2CCCCC2)n1,-8,-8,1,i,12,-27,-3,-2,

# Gathered by group: the compounds so far containing four or more nitrogen atoms (19)
SMILES,eIF4H inh,HIV Env fusion,CSC inhib,Rce1 inh,PABP FP inh,Yeast UUG start,MT1-MMP act inh,MT1-MMP act inh RFP,others
CCOc1ccc2nc(N/C(N)=N/S(C)(=O)=O)nc(C)c2c1,3,-29,-3,i,-11,-13,3,1,
CCc1ccccc1NC(=O)CCC(=O)Nc1nnc(C(C)C)s1,-10,-11,5,i,9,-17,0,3,
COCCNC(=O)c1cc(-c2ccccc2)nn1CC1CC(c2cccnc2)=NO1 (configuration not stated),·,-10,-5,i,·,-10,-1,0,
Cn1c(=O)[nH]c(=O)c2c1nc(N1CCOCC1)n2CC(=O)c1ccccc1,10,2,-7,i,2,·,-1,6,
CC(C)C(=O)N1CCN(c2ccccc2NC(=O)c2ccc(C#N)cc2F)CC1,-2,7,-7,i,4,-4,-7,-7,
Cc1nn(Cc2ccccc2Cl)c(C)c1C(=O)NCCN1C(=O)S/C(=C\c2ccccc2)C1=O,71,-3,29,i,-6,·,-2,-3,eIF4H inh retest=-17;PABP FP inh retest=10
Cn1c(=O)[nH]c(=O)c2c1nc(NCc1ccccc1)n2Cc1ccc(F)cc1,-1,-59,7,i,-10,-20,3,1,
Cc1ccc(S(=O)(=O)N/N=C/c2cccc3nccnc23)cc1,-9,17,0,i,1,-4,-8,4,
CCN1CCCC1CNC(=O)Cn1nc(C)n2nc(-c3ccccc3)cc2c1=O (configuration not stated),0,0,16,i,-1,-5,-1,1,
Cc1cc(C(=O)CSc2nc(N)cc(N)n2)c(C)n1CC1CCCO1 (configuration not stated),·,21,-7,·,·,-6,3,-5,
Cc1ccccc1C(=O)Nc1cccc(C(=O)N/N=C/c2cc(Cl)cc([N+](=O)[O-])c2O)c1,16,9,49,i,-2,·,-6,-5,
CN(c1nc2ccccc2n2c(-c3ccco3)nnc12)S(=O)(=O)c1ccccc1,-15,-36,-7,i,-5,-13,-11,-3,
Cc1ccccc1NC(=O)c1ccc(N/N=C/c2ccccc2O)c([N+](=O)[O-])c1,-9,·,7,i,5,·,4,-1,
Cc1cc(C)c2sc(N(CCCN(C)C)C(=O)c3ccc(S(=O)(=O)N4CCCc5ccccc54)cc3)nc2c1,·,-11,101*,i,·,-4,3,-3,
Cc1cc(C)nc(/N=C(\N)N2CCCCC2)n1,28,-1,0,i,6,·,1,1,
O=C1CCCc2nc(N3CCN(c4ccccc4)CC3)ncc21,4,-71,-5,i,-8,-15,-1,-10,
CCCNC(=O)c1cc2nc(-c3ccccc3)cc(C(F)(F)F)n2n1,-1,-70,2,i,0,1,6,2,
Cn1c(N)c(C(=O)COC(=O)C2Cc3ccccc3CN2S(C)(=O)=O)c(=O)n(C)c1=O (configuration not stated),·,33,·,·,·,-11,2,-5,
COc1ccccc1Nc1nc(N)nc(CSC(=S)N2CCCCC2)n1,-8,-8,1,i,12,-27,-3,-2,

# Not all compounds are listed (hit frequency here may not be typical).
